Screening results from PubChem.
NPYLR7 ag – agonists of mosquito NPYLR7 receptor, primary screen, cell-based, Aedes aegypti, calcium fluorescence, mosquito biting behavior; 270,000 tested, 0.15% active; HEK293T NPYLR7/Galpha15, GCaMP6s calcium fluorescence; activation, % at 10 µM; Aedes aegypti neuropeptide Y-like receptor 7 (NPYLR7); in the data active = activation above about 40%;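 also: 0% = vehicle and 100% = reference agonist at the receptor; some compounds past the cut are filed as inactive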
NPYLR7 ag max-min – second read-out of NPYLR7 ag, no call of its own (marks repeat the call); activation, %; measured here: Max-Min RFU normalised activation; some inactives read as strong as hits;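 span of the calcium signal over five minutes; 0% = vehicle and 100% = native peptide agonist; compound fluorescence can raise it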
Numbers without * were called inactive; & = joins results of further samples. These rows are one share of the data, so the mix of outcomes need not match the whole.

The first 11 records, to show the layout:
Screening COc1ccc(/C=N\OCC(=O)N=Nc2c(O)[nH]c3ccc(Br)cc23)cc1 returned NPYLR7 ag -1.1 and NPYLR7 ag max-min -7.4.
COc1cccc(NC(=O)c2cccc(NC(=O)C(C)N3CCCC3)c2)c1 (stereo not given) was read as NPYLR7 ag 0.4 and NPYLR7 ag max-min -1.3.
For CC1CC(c2ccccc2)C(C)N1S(=O)(=O)N1CCOCC1 (stereo not given) the results were NPYLR7 ag -0.3 and NPYLR7 ag max-min 1.3.
`CN(C)c1nccnc1-c1ccccc1CN1CCOCC1` gave NPYLR7 ag 1.9 and NPYLR7 ag max-min 0.1.
`O=C(CN1C(=O)CSc2ccccc21)Nc1cc(F)cc(F)c1` gave NPYLR7 ag 15.3 and NPYLR7 ag max-min 7.9.
For C[n+]1ccccc1C1CCCCC1=NNc1ccc([N+](=O)[O-])cc1[N+](=O)[O-] (stereo not given) the results were NPYLR7 ag 0.8 and NPYLR7 ag max-min 0.6.
COCCN1C(=O)C(Cc2ccccc2)ON=C1c1ncccc1C (stereo not given) was read as NPYLR7 ag 6.6 and NPYLR7 ag max-min 5.2.
`CCOC(=O)N1CCN(c2nc(C(C)C)nc3sc4c(c23)CCCCC4)CC1` gave NPYLR7 ag 6.0 and NPYLR7 ag max-min 11.8.
For COc1ccc(C(C)NC(=O)c2cc(-c3ccco3)[nH]n2)c(OC)c1 (stereo not given) the results were NPYLR7 ag -3.3 and NPYLR7 ag max-min -9.5.
`CCOC(=O)c1c(N2C(=O)CC(Sc3ccccc3C(=O)O)C2=O)sc2c1CCC(C)C2` (stereo not given) gave NPYLR7 ag -11.5 and NPYLR7 ag max-min -18.1.
Screening COc1cccc(CCC(=O)Nc2ccc(C)cc2)c1 returned NPYLR7 ag -0.3 and NPYLR7 ag max-min -0.7.

Main list, from the start:
Screening COc1ccc(/C=N\OCC(=O)N=Nc2c(O)[nH]c3ccc(Br)cc23)cc1 returned NPYLR7 ag -1.1 and NPYLR7 ag max-min -7.4.
COc1cccc(NC(=O)c2cccc(NC(=O)C(C)N3CCCC3)c2)c1 (stereo not given) was read as NPYLR7 ag 0.4 and NPYLR7 ag max-min -1.3.
For CC1CC(c2ccccc2)C(C)N1S(=O)(=O)N1CCOCC1 (stereo not given) the results were NPYLR7 ag -0.3 and NPYLR7 ag max-min 1.3.
`CN(C)c1nccnc1-c1ccccc1CN1CCOCC1` gave NPYLR7 ag 1.9 and NPYLR7 ag max-min 0.1.
`O=C(CN1C(=O)CSc2ccccc21)Nc1cc(F)cc(F)c1` gave NPYLR7 ag 15.3 and NPYLR7 ag max-min 7.9.
For C[n+]1ccccc1C1CCCCC1=NNc1ccc([N+](=O)[O-])cc1[N+](=O)[O-] (stereo not given) the results were NPYLR7 ag 0.8 and NPYLR7 ag max-min 0.6.
COCCN1C(=O)C(Cc2ccccc2)ON=C1c1ncccc1C (stereo not given) was read as NPYLR7 ag 6.6 and NPYLR7 ag max-min 5.2.
`CCOC(=O)N1CCN(c2nc(C(C)C)nc3sc4c(c23)CCCCC4)CC1` gave NPYLR7 ag 6.0 and NPYLR7 ag max-min 11.8.
For COc1ccc(C(C)NC(=O)c2cc(-c3ccco3)[nH]n2)c(OC)c1 (stereo not given) the results were NPYLR7 ag -3.3 and NPYLR7 ag max-min -9.5.
`CCOC(=O)c1c(N2C(=O)CC(Sc3ccccc3C(=O)O)C2=O)sc2c1CCC(C)C2` (stereo not given) gave NPYLR7 ag -11.5 and NPYLR7 ag max-min -18.1.
Screening COc1cccc(CCC(=O)Nc2ccc(C)cc2)c1 returned NPYLR7 ag -0.3 and NPYLR7 ag max-min -0.7.
`Cc1ccc(S(=O)(=O)c2c(C)nn(C(C)(C)C)c2OC(=O)C2CCCC2)cc1` gave NPYLR7 ag 2.9 and NPYLR7 ag max-min 11.5.
Cc1ccc(CN(C)C(=O)CC(c2ccccc2)c2ccc3c(c2)OCO3)o1 (stereo not given) was read as NPYLR7 ag 6.5 and NPYLR7 ag max-min -1.8.
Screening Cc1cc(C2CCCN2CC(O)c2ccc(Cl)cc2)on1 (stereo not given) returned NPYLR7 ag 3.7&-1.9 and NPYLR7 ag max-min 2.8&-2.2.
Screening CCn1c(=O)c2c(nc3n2C(C)C(C)=NN3Cc2cccc(Cl)c2)n(C)c1=O (stereo not given) returned NPYLR7 ag 5.1 and NPYLR7 ag max-min 14.9.
For COC(C)c1nncn1-c1cccc(C(F)(F)F)c1 (stereo not given) the results were NPYLR7 ag 9.6 and NPYLR7 ag max-min -0.7.
N#Cc1cccc(CN2C(=O)C3(SCCN3C(=O)Nc3cccc(Cl)c3)c3cc(F)ccc32)c1 (stereo not given) was read as NPYLR7 ag 20.1 and NPYLR7 ag max-min 15.7.
For C#C[C@]1(OC(C)=O)CCC2C3CCC4=CC(=O)CC[C@@H]4C3CC[C@@]21C (stereo not given in full) the results were NPYLR7 ag 6.2 and NPYLR7 ag max-min 2.4.
For COc1c(C)cc(C(=O)N2CCOC(COc3cccc(C(F)(F)F)c3)C2)cc1C (stereo not given) the results were NPYLR7 ag 17.3 and NPYLR7 ag max-min 24.4.
`Cc1ccc(NC(=O)CN2CN(c3ccccc3)C3(CCN(C(=O)c4ccc(Cl)cc4Cl)CC3)C2=O)cc1C` gave NPYLR7 ag 14.0 and NPYLR7 ag max-min 20.3.
For NC(=O)c1c(NC(=O)CSc2n[nH]c(N)n2)sc2c1CCC2 the results were NPYLR7 ag 8.8 and NPYLR7 ag max-min 8.4.
`CCC(=O)NCCn1cnc(-c2ccccc2)c1-c1ccc2nonc2c1` gave NPYLR7 ag 10.2 and NPYLR7 ag max-min -3.1.
`O=C(OCc1nc(-c2cccc(Cl)c2)no1)c1ccc(O)cc1` gave NPYLR7 ag -0.2 and NPYLR7 ag max-min -2.4.
For CCn1c(=NC(=O)CSCC(=O)Nc2nccs2)sc2ccccc21 the results were NPYLR7 ag 8.4 and NPYLR7 ag max-min 5.0.
`COCCN=c1scc(-c2ccc(OC(F)F)cc2)n1N=Cc1ccc(C#N)cc1` gave NPYLR7 ag -0.9 and NPYLR7 ag max-min 1.0.
`CC1CN(c2cc(Cl)nc(SCC(=O)N3CCN(c4cccc(C(F)(F)F)c4)CC3)n2)CCN1C(=O)c1ccc(Cl)cc1` (stereo not given) gave NPYLR7 ag 12.8 and NPYLR7 ag max-min 21.5.
Screening CCCCNC(=O)N1CCN(c2cc(Cl)nc(SCC(=O)N3CCC(C(=O)OCC)CC3)n2)CC1C (stereo not given) returned NPYLR7 ag 6.8 and NPYLR7 ag max-min 10.7.
Screening COCCNC(=O)CSc1nc(-c2cc(C)cc(C)c2)nc2c1c(=O)n(C)c(=O)n2C returned NPYLR7 ag -5.0 and NPYLR7 ag max-min -8.1.
Screening CC(=O)c1c(C)[nH]c(C(=O)C(C)Sc2nnnn2C)c1C (stereo not given) returned NPYLR7 ag 5.3 and NPYLR7 ag max-min 5.7.
For COC(=O)c1ccc(C(=O)NNc2nc3ccc(C)cc3s2)cc1 the results were NPYLR7 ag 4.6 and NPYLR7 ag max-min -0.1.
Screening COC(=O)CC(Cc1ccccc1)NS(=O)(=O)N1CCCC(C)C1 (stereo not given) returned NPYLR7 ag 0.8 and NPYLR7 ag max-min -0.9.
Screening O=C(N/N=C\c1c[nH]c2ccccc12)c1cc(-c2ccccc2Cl)n[nH]1 returned NPYLR7 ag 1.8 and NPYLR7 ag max-min -1.6.
`CSc1ncccc1C(=O)N(Cc1cnn(C)c1)C(C)C` gave NPYLR7 ag -5.6 and NPYLR7 ag max-min -6.7.
`Cc1ccc(NC(=O)Cn2ncn3nc(-c4ccc(F)cc4)cc3c2=O)cc1F` gave NPYLR7 ag -9.5 and NPYLR7 ag max-min -15.9.
For Cc1ccccc1C(N)C1CCCC(C)C1 (stereo not given) the results were NPYLR7 ag 14.1 and NPYLR7 ag max-min 8.3.
O=C(CN1C(=O)C2(OCCO2)c2ccccc21)c1ccccc1 was read as NPYLR7 ag 3.7 and NPYLR7 ag max-min 1.7.
For Cc1cc(C)n(CCC(=O)N2[C@@H]3CC[C@H]2CC(O)C3)c(=O)n1 (stereo not given in full) the results were NPYLR7 ag 11.3 and NPYLR7 ag max-min 1.4.
c1ccc(Cc2cn[nH]c2C2CCNCC2)cc1 was read as NPYLR7 ag 10.7 and NPYLR7 ag max-min 8.3.
`CC(C)NC(=O)C1CCN(C2CCN(C(=O)c3cc4c(s3)CCCCC4)CC2)CC1` gave NPYLR7 ag -4.9 and NPYLR7 ag max-min -5.6.
Screening C=Cc1c(C)c2cc3nc(cc4[nH]c(cc5nc(cc1[nH]2)C(C)=C5CCC(=O)O)c(CCC(=O)O)c4C)[C@@]1(C)C3=CC=C(C(=O)OC)C1C(=O)OC (stereo not given in full) returned NPYLR7 ag 12.3 and NPYLR7 ag max-min -5.0.
`CC(=O)Oc1c(C)cc(CN(C)C(C)c2nccs2)cc1C` (stereo not given) gave NPYLR7 ag 2.7 and NPYLR7 ag max-min 1.2.
CCC(C)NC(=O)N(CCN(C)C)CCN(C)C (stereo not given) was read as NPYLR7 ag 0.3 and NPYLR7 ag max-min -6.8.
`O=C1NCCN(Cc2cccc3ccccc23)C1CC(=O)N1CCC(c2ccncc2)CC1` (stereo not given) gave NPYLR7 ag 7.5 and NPYLR7 ag max-min 4.5.
Screening O=C(Cc1ccccc1C(=O)Nc1ccc2c(c1)CCC2)N[C@@H]1CCCC[C@H]1N1CCOCC1 returned NPYLR7 ag 6.8 and NPYLR7 ag max-min 7.1.
Cc1nccc(-c2cccc(NC(=O)C3CC=CCC3C(=O)N3CCN(c4ccccn4)CC3)c2)n1 (stereo not given) was read as NPYLR7 ag -2.9 and NPYLR7 ag max-min -5.0.
CCC(CC)C(=O)N(CCN(C)C)Cc1cc(NC(=O)c2ccccc2Cl)ccc1N(C)C was read as NPYLR7 ag 0.4 and NPYLR7 ag max-min 5.4.
`Cc1c(C(=O)NCc2cccc3ccccc23)sc(=O)n1Cc1ccc(S(=O)(=O)N(C)C)cc1` gave NPYLR7 ag -1.2 and NPYLR7 ag max-min -2.5.
Screening c1ccc2c(c1)ncn2CC1CCCCC1 returned NPYLR7 ag 0.6 and NPYLR7 ag max-min 6.0.
Cc1cc(C)cc(NC(=O)CC(=O)N[C@H]2COC[C@@H]2N2CCCC2)c1 was read as NPYLR7 ag 8.9 and NPYLR7 ag max-min 5.2.
Screening CC(=O)Oc1c(-c2ccc(NC(=O)c3cccc(Br)c3)cc2)c(C2CC2)nn1-c1ccc(F)cc1 returned NPYLR7 ag -0.2 and NPYLR7 ag max-min 7.7.
CCNc1nc(NCC)n2c(SCC(=O)N(CC)C3CCCCC3)nnc2n1 was read as NPYLR7 ag 4.6 and NPYLR7 ag max-min 19.8.
For COc1ccc(Oc2cc(N3CCN(C(=O)COc4ccccc4)C(C)C3)ncn2)cc1 (stereo not given) the results were NPYLR7 ag 9.6 and NPYLR7 ag max-min 7.2.
Screening CC(C)(C)c1ccnc2nc(N3CCN(C(=O)c4c(F)c(F)c(F)c(F)c4F)CC3)nn12 returned NPYLR7 ag 0.7 and NPYLR7 ag max-min 1.0.
Screening CC(C)(C)c1ccc(-c2ccnc3nc(N4CCN(S(=O)(=O)c5cccc(F)c5)CC4)nn23)cc1 returned NPYLR7 ag 4.1 and NPYLR7 ag max-min 1.2.
Screening CC(C)CNC(=O)c1ccccc1NC(=O)CN(C(C)C)C1CCCCC1 returned NPYLR7 ag -7.3 and NPYLR7 ag max-min -7.1.
Nc1c(O)ccc2c1C(=O)c1ccccc1C2=O was read as NPYLR7 ag 1.9 and NPYLR7 ag max-min 0.4.
`CC(=O)N1CCc2cc(-c3nc(NCC4CCCO4)sc3C)ccc21` (stereo not given) gave NPYLR7 ag -0.5 and NPYLR7 ag max-min -0.8.
CC1CCC(C(C)C)C2=C1C(C#N)(C#N)C(C#N)(C#N)C(c1ccccc1)N2 (stereo not given) was read as NPYLR7 ag 3.0 and NPYLR7 ag max-min 25.3.
Cn1nc2c(c1NC(=O)c1ccc(S(C)(=O)=O)cc1)CCC2 was read as NPYLR7 ag 23.2 and NPYLR7 ag max-min 20.0.
For CC(C)n1c(CCNc2ncc(Br)cn2)n[nH]c1=S the results were NPYLR7 ag 14.2 and NPYLR7 ag max-min 13.9.
Cn1c(=O)c2c(SCc3cccnc3)nc(-c3ccccc3F)nc2n(C)c1=O was read as NPYLR7 ag -1.7 and NPYLR7 ag max-min -4.6.
Screening CN(C)Cc1cccc(C(=O)Nc2ccc3c(c2)CC(=O)N3)c1 returned NPYLR7 ag -0.2 and NPYLR7 ag max-min -1.4.
Screening COc1ccc(CN2C(=O)C3(OCCCO3)c3cccc(C)c32)cc1 returned NPYLR7 ag 15.1 and NPYLR7 ag max-min 8.1.
`O=C(NCc1ccccc1)N1CCN(c2ccc(-c3ccco3)nn2)CC1` gave NPYLR7 ag -2.4 and NPYLR7 ag max-min -1.7.
CCS(=O)(=O)c1cccc(C(=O)N(CCCN(C)C)c2nc3c(OC)ccc(C)c3s2)c1 was read as NPYLR7 ag -5.7 and NPYLR7 ag max-min -10.6.
CC(C)(C)c1cn(C2CCN(C(=O)c3cnc4ccccc4n3)CC2)nn1 was read as NPYLR7 ag 4.5 and NPYLR7 ag max-min 3.6.
Screening Fc1ccc(-n2cc(CNCCc3cn[nH]c3)c(-c3ccccc3Cl)n2)cc1 returned NPYLR7 ag -4.4 and NPYLR7 ag max-min -14.7.
`COc1ccccc1C1(CNc2nc3ccccc3o2)CCOCC1` gave NPYLR7 ag 18.6 and NPYLR7 ag max-min 19.3.
For Cc1cccc(CN(C(=O)c2ccc3[nH]c(=O)c(=O)[nH]c3c2)C(C)C)c1 the results were NPYLR7 ag -1.7 and NPYLR7 ag max-min -5.5.
